Mtb betalactam: beta-lactam sensitization of Mtb H37Rv, H37Rv; M. tuberculosis H37Rv growth with meropenem, percent inhibition; hits of this screen are not shown here; inhibition, % at 25 µM; 330,000 tested, 0.27% active; AID 434955, 2010;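 active = about 74% or more and at least 40 points above the plate without the antibiotic, then above 30% in a dose series; inconclusive = first-round hits that could not be retested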;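 also: growth measured after seven days incubation then overnight dye step; 0% = bacteria only wells and 100% = bacteria with antibiotic; twin plates without the antibiotic show which effects depend on it; some results filed as inactive read as strong as hits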
YopH PTP inh: YopH tyrosine phosphatase inhibitors, primary screen, biochemical, fluorescence Ex485/Em525 | inhibition, %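 (about 10 µM by stock and volumes)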 | YopH tyrosine phosphatase [Yersinia enterocolitica] | 140,000 tested, 0.16% active;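 active = inhibition of 50% or more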;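 also: controls were vehicle for no effect and minimum signal wells for full effect; inactives centre near -20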
Arbovirus inh: antivirals against arbovirus infection, primary screen, cell-based, full library, 10K replicate subset. arbovirus infection cell-based antiviral screen. inhibition, % at 10 µM. 200,000 tested, 0.37% active. AID 1251, 2008;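 active = inhibition from about 30%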;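 also: bluetongue infection of BSR cells; cell survival read as ATP light after 72 h; 0% = infected wells without compound and 100% = uninfected wells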
RecA splice inh: Mtb RecA intein splicing inhibitors, primary screen, biochemical, fluorescence, HTS; Protein RecA (Mycobacterium tuberculosis (strain ATCC 25618 / H37Rv)), P9WHJ3; cell-free RecA intein splicing; inhibition, %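 (about 9 µM by stock and volumes)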; 290,000 tested, 0.75% active; in the data active = inhibition above about 30%; inconclusive = no clear call, values can overlap the other calls;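 also: 0% = vehicle wells and 100% = reference inhibitor control wells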
Target sequence (P9WHJ3 whole entry, looked up, canonical isoform): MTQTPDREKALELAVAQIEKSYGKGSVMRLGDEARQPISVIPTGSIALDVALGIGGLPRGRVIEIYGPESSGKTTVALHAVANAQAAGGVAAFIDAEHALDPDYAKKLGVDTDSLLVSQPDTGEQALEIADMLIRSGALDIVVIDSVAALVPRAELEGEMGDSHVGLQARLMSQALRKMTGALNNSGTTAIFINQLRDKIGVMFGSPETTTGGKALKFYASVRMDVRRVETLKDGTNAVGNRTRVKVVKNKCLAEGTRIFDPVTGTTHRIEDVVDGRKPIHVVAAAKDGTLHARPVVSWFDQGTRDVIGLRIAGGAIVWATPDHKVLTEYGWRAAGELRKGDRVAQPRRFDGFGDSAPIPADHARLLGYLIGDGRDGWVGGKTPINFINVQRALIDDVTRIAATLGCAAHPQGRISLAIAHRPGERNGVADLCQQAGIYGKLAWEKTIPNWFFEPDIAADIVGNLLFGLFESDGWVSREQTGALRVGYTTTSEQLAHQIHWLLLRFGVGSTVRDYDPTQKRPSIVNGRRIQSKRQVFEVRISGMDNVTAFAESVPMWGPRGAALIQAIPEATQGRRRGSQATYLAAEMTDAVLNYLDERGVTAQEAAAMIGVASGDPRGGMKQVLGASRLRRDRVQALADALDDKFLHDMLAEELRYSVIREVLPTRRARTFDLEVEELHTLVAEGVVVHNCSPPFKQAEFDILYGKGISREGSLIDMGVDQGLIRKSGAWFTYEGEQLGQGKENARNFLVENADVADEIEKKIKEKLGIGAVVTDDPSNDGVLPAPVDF
Mtb growth: M. tuberculosis H37Rv growth inhibitors, H37Rv strain (AID 1626); inhibition, % at 10 µM, or IC50 in µM where a hit was titrated; 220,000 tested, 0.95% active; M. tuberculosis H37Rv growth inhibition; higher % means a stronger effect;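 active = confirmed in a dose series; inconclusive = inhibition above 80% but not taken into the dose series; inactive = below 80% or under 30% at every dose of the series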;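 also: bacteria incubated seven days before Alamar blue readout; 0% = bacteria only wells and 100% = bacteria with antibiotic wells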
Arbovirus inh repeat: further read-out of Arbovirus inh, marked with its call; inhibition, %; measured here: 10K subset replicate screen; many hits read low in the repeat;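 first of two repeat runs on a subset; 0% = infected and 100% = uninfected wells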
An asterisk follows results filed as active; ? = inconclusive; / = no result given. These rows are one share of the data (hit frequency here may not be typical).

SMILES	Mtb betalactam	YopH PTP inh	Arbovirus inh	RecA splice inh	Mtb growth	others
O=C(Oc1ccc(N(C(=O)c2ccncc2)S(=O)(=O)c2ccc(F)cc2)cc1)c1ccncc1	-1	/	0	13	4%
CCc1ccccc1NC(=O)Cn1nnc(C(=O)NCc2cccc(OC)c2)c1N	-2	/	/	-0.2	/
O=C(CCSc1nc(-c2ccco2)cc(C(F)(F)F)n1)NCCc1ccccc1	-12	7	-3	/	4%
COC(=O)c1ccc(CSC(=N)N)o1	-3	/	-8	0.3	6%
O=C(NCCS(=O)(=O)N1CCCC1)c1ccccc1	-6	/	/	0.0	/
O=C(COc1ccccc1Cl)N1CCN(c2ccc([N+](=O)[O-])c(N3CCCCC3)c2)CC1	7	-28	2	0.5	4%
O=C(COc1ccc(Br)cc1)NCCNC(=O)c1ccncc1	-19	/	/	2.8	/
Cc1cc(Br)ccc1NS(=O)(=O)c1c(C)[nH]c(=O)[nH]c1=O	-8	/	/	-1.3	/
O=C(COc1ccccc1)NCc1ccc(-n2cccc2)cc1	5	/	2	0.7	-2%
CCOC(=O)C1(CCOC)CCN(C(=O)c2ccccc2-c2cccc(C)c2)CC1	-3	/	2	5.9	-5%
O=C(Cc1ccc(S(=O)(=O)N2CCOCC2)s1)Nc1ccc(S(=O)(=O)N2CCCCC2)cc1	-8	/	/	8.0	/
C/C(CC(=O)Nc1ccc(N(C)C)cc1)=N\NC(=O)c1ccccc1F	94	/	/	-2.3	/
O=S(=O)(Cc1cc(Cl)nc(-c2ccncc2)n1)c1ccccc1	-7	/	-1	8.3	4%
O=C(CNC(=O)c1cccs1)c1ccc([N+](=O)[O-])cc1	99	-4	-9	-4.1	-5%
COc1ccc(-c2ccc(=O)n(CC(=O)Nc3ccc(C(=O)NC4CC4)cc3)n2)cc1OC	-12	-7	7	-0.2	-7%
O=C(c1ccccc1)N1CCN(c2ccccc2F)CC1	-2	-56	-1	-0.9	8%
Cc1csc(NC(=O)C2CCCN2C(=O)OCC(C)C)n1 (configuration not stated)	1	-51	9	-1.8	0%
CCO[C@@H]1OC(C(=O)NC2CC2)=C[C@H](C)[C@H]1CCCO	-4	/	/	-1.9	-11%
CN1C(=O)C(C)(C)c2cc(S(=O)(=O)NCc3ccc(Cl)cc3)ccc21	?	/	/	-0.8	/
COc1ccc(NC(C)=O)cc1NC(=O)CSc1nc2ncccc2[nH]1	-5	-20	0	-0.4	4%
Cc1cccc(N2CCN(C(=O)C3CCN(S(=O)(=O)c4cccnc4)CC3)CC2)c1C	5	-36	9	7.4	8%
Nc1c(C(=O)Nc2ccccc2)sc2nc3c(c(-c4ccco4)c12)CCC3	-5	-9	-10	0.0	5%
Cn1c(Cn2cnc3ccccc32)nnc1SCC(=O)CC(=O)Nc1ccccc1	-2	-15	3	1.7	-7%
Cc1cc(OC(=O)c2ccc(C)c(C)c2)c([N+](=O)[O-])c(=O)[nH]1	0	/	/	-4.4	/
Cc1cc(OC(=O)c2ccco2)c(Sc2ccccc2[N+](=O)[O-])c(=O)o1	/	/	12	/	-11%
Clc1ccc(-c2ccc(CN3CCCCC3)o2)cc1	-3	/	/	3.7	/
COc1ccc(NC(=O)NC23CC4(C)CC(C)(CC(C)(C4)C2)C3)cc1	4	12	-4	0.4	3%
COc1ccccc1NC(=O)N1CCN(c2ccc(F)cc2)CC1	-5	-22	3	0.8	5%
NS(=O)(=O)c1cccc(NS(=O)(=O)c2ccc(/C=C/C(=O)OCC(=O)c3ccccc3)cc2)c1	8	/	-3	-0.7	5%
Cc1ccc(C(=O)N/C(=C/c2ccco2)C(=O)O)cc1	3	-25	-4	2.7	-4%
O=S(=O)(Nc1cccc(C(F)(F)F)c1)c1cccnc1	-4	-23	-3	-0.9	-7%
Cc1cc(C)c(C(=O)c2ccc(C(=O)N3CCCCC3)cc2)c(C)c1	-2	/	/	-1.0	/
COc1cccc2cc(-c3cn4ccc(C)cc4n3)c(=O)oc12	20	-11	/	-0.3	10%
O=C(OCc1ccccc1F)c1ccc2c(c1)OCCO2	97	-25	-6	4.8	-3%
CCC(CC)c1nnc(NC(=O)[C@@H](NC(=O)c2cccc(C)c2)C(C)C)s1	-2	-25	-3	-0.2	7%
NNS(=O)(=O)c1ccc(Sc2ccccn2)c([N+](=O)[O-])c1	1	/	/	0.3	-12%
O=C(Cn1cnc2c(cnn2-c2ccccc2Cl)c1=O)N1CCc2ccccc21	-4	-27	-1	-7.7	-1%
C/C(=N\Nc1nc(-c2ccccn2)nc2ccccc12)c1ccc(F)cc1	99	/	/	0.9	67%
O=C(CCc1ccccc1)NC(NC(=S)Nc1ccc(Cl)cc1)C(Cl)(Cl)Cl (configuration not stated)	1	7	17	0.0	-4%
O=S(=O)(NCc1ccc(Cl)cc1)NCc1ccc(Cl)cc1	-4	/	/	-2.3	/
Cc1ccc(C(c2nnnn2CC2CCCO2)N2CCN(c3cccc(C)c3C)CC2)cc1 (configuration not stated)	-5	-1	-31	9.4	31%
O=C(NC(=S)Nc1ccccc1N1CCCC1)c1ccc([N+](=O)[O-])cc1	-3	-21	8	12	19%
Cc1ccc(-c2nn(-c3ccccc3)cc2CC(=S)N2CCOCC2)cc1	2	/	/	8.7	/
COC(=O)C1CCN(C(=O)c2ccccc2NC(C)=O)CC1	?	-9	11	-0.4	-6%	Arbovirus inh repeat=0
OCCC1CN(Cc2ccccc2O)CCN1CCc1ccccc1 (configuration not stated)	4	/	0	1.2	-5%
Cc1cccc(-n2c(N)cc(=O)[nH]c2=S)c1	-3	-34	9	1.2	-5%
CN(C)CCC(O)(c1ccccc1)c1ccccc1	-1	-12	6	3.6	-12%
CSc1cccc(NC(=S)N2CCC(c3ccccc3)C2)c1 (configuration not stated)	-12	/	/	-2.2	/

Reprinted at random: 6 compounds from above.
SMILES	Mtb betalactam	YopH PTP inh	Arbovirus inh	RecA splice inh	Mtb growth	others
NNS(=O)(=O)c1ccc(Sc2ccccn2)c([N+](=O)[O-])c1	1	/	/	0.3	-12%
COc1ccccc1NC(=O)N1CCN(c2ccc(F)cc2)CC1	-5	-22	3	0.8	5%
Cn1c(Cn2cnc3ccccc32)nnc1SCC(=O)CC(=O)Nc1ccccc1	-2	-15	3	1.7	-7%
COc1cccc2cc(-c3cn4ccc(C)cc4n3)c(=O)oc12	20	-11	/	-0.3	10%
Cc1csc(NC(=O)C2CCCN2C(=O)OCC(C)C)n1 (configuration not stated)	1	-51	9	-1.8	0%
Cc1ccc(C(=O)N/C(=C/c2ccco2)C(=O)O)cc1	3	-25	-4	2.7	-4%

The list continues:
SMILES	Mtb betalactam	YopH PTP inh	Arbovirus inh	RecA splice inh	Mtb growth	others
Cc1ccccc1NC(=O)NNC(=O)c1ccc2ccccc2c1O	-14	/	/	-3.7	/
O=C(c1c[nH]c2ccc(F)cc2c1=O)N1CCCCCC1	26	-18	4	-0.2	-1%
CCOC(=O)c1cnc2c(Cl)cccc2c1NCCCN1CCOCC1	3	/	/	-0.1	/
O=C(c1ccc2c(c1)N(Cc1cccc(Cl)c1)C(=O)c1ccccc1S2(=O)=O)N1CCN(c2ccccn2)CC1	60	/	8	8.0	54%
Cn1cnc2c1c(=O)n(Cc1cccc(Br)c1)c(=O)n2C	1	6	-6	7.1	-1%
CC(=O)c1ccc(S(=O)(=O)NCCC(=O)OCC(=O)N2CCCC2=O)cc1	-7	/	/	-3.9	/
O=C(Nc1cccc(F)c1)N1CC=C(c2ccc(Cl)cc2)CC1	-7	-11	-27	17	12%
CCN1CCN(c2cc(=O)n(C3CCCCC3)c(=O)[nH]2)CC1	4	3	5	-0.9	4%	Arbovirus inh repeat=1
O=C1[C@@H]2Cc3c([nH]c4ccccc34)C(c3ccccc3)N2C(=O)CN1CCO (some centres not stated)	-4	/	/	1.1	/
COC(=O)c1ccccc1S(=O)(=O)N1CCC(C(=O)NCC2CCCO2)CC1 (configuration not stated)	-2	/	/	-0.3	/
O=C(O)C(Cc1ccccc1)N1C(=O)c2c(Cl)c(Cl)c(Cl)c(Cl)c2C1=O (configuration not stated)	-6	/	/	6.6	/
CCOC(=O)c1cc(CC)sc1N1C(=O)CC(Sc2ncccc2C(=O)O)C1=O (configuration not stated)	-4	/	-2	5.1	3%

Grouped by structure, the compounds so far containing an aryl thioether with sulfur outside any ring (seven)
SMILES	Mtb betalactam	YopH PTP inh	Arbovirus inh	RecA splice inh	Mtb growth	others
O=C(CCSc1nc(-c2ccco2)cc(C(F)(F)F)n1)NCCc1ccccc1	-12	7	-3	/	4%
COc1ccc(NC(C)=O)cc1NC(=O)CSc1nc2ncccc2[nH]1	-5	-20	0	-0.4	4%
Cn1c(Cn2cnc3ccccc32)nnc1SCC(=O)CC(=O)Nc1ccccc1	-2	-15	3	1.7	-7%
Cc1cc(OC(=O)c2ccco2)c(Sc2ccccc2[N+](=O)[O-])c(=O)o1	/	/	12	/	-11%
NNS(=O)(=O)c1ccc(Sc2ccccn2)c([N+](=O)[O-])c1	1	/	/	0.3	-12%
CSc1cccc(NC(=S)N2CCC(c3ccccc3)C2)c1 (configuration not stated)	-12	/	/	-2.2	/
CCOC(=O)c1cc(CC)sc1N1C(=O)CC(Sc2ncccc2C(=O)O)C1=O (configuration not stated)	-4	/	-2	5.1	3%

Next section
SMILES	Mtb betalactam	YopH PTP inh	Arbovirus inh	RecA splice inh	Mtb growth	others
COc1cccc(NC(=O)CN2C(=O)CSc3ccc(S(=O)(=O)N4CCOCC4)cc32)c1	2	/	/	-2.2	/
CCOCCn1ccc2c(OCC(=O)Nc3ccc(OC)cc3OC)cccc2c1=O	-12	/	/	1.2	/
CCc1nnc(NC(=O)CCc2ccc(C)o2)s1	-15	-30	0	-2.2	1%
Cc1ccc2c(c1)c1nnc(SCC(=O)Nc3cccc(Cl)c3C)nc1n2CC(=O)O	4	/	6	/	-8%
COc1ccc2cc[nH]c2c1	-5	/	5	-0.9	-1%
CCC(=O)N(Cc1cc2c(C)cc(C)cc2[nH]c1=O)C1CCCCC1	-3	-51	-10	1.5	-3%
CN1C(=O)/C(=C/C=C2\SCCN2C)N(C)C1=S	/	/	-2	-4.4	2%
COc1ccc(-n2c(C(C)(C)C)csc2=Nc2c(C)n(C)n(-c3ccccc3)c2=O)cc1	-3	-32	13	-0.2	0%
CCOc1ccc(N2CC(C(=O)Nc3cccc(S(=O)(=O)N4CCCCC4)c3)CC2=O)cc1 (configuration not stated)	-2	/	3	1.5	-7%
Cc1cc(NCc2ccccc2Cl)n2nnnc2n1	-2	-15	3	0.7	-9%
Cc1nn(C)c(Oc2ccc(Cl)cc2)c1C=O	4	8	2	1.9	-9%
CCNC(=O)COc1cc(C)c(Br)c(C)c1	2	/	-5	-5.1	4%
COc1ccc(NC(=S)N2CCN(C(c3ccccc3)c3ccccc3)CC2)c(OC)c1	0	/	18	12	5%
Cn1c(C(=O)N2CCN(Cc3ccccc3)CC2)cc2c(=O)n(C)c3ccccc3c21	2	-18	-12	0.8	10%	Arbovirus inh repeat=0
C=C(C)C(=O)Nc1cccc(C2=NOC3(C2)C[C@H](C(N)=O)N(C(=O)C(c2ccccc2)c2ccccc2)C3)c1 (some centres not stated)	0	/	/	/	-7%
CC(NCc1ccc(Cl)cc1Cl)C(O)c1ccccc1 (configuration not stated)	0	-41	-3	-2.5	6%
Cc1nnc(SCc2nnc(-c3ccccc3Br)o2)s1	-1	/	3	-1.9	-3%
CC(C)N(C(=O)CSc1nn2c(=O)c(C(C)(C)C)nnc2s1)c1ccccc1	-10	-37	6	-0.1	0%
Cc1nc2nc(CCNS(=O)(=O)c3ccc(Cl)cc3)cn2nc1C	-4	/	/	-75	/
CCc1c(O)nc(SCC(=O)NC(C)(C)C)n(-c2ccccc2)c1=O	1	3	5	-2.1	-2%
COCCN(CC1CCCN(C2Cc3ccccc3C2)C1)C(=O)c1cccs1 (configuration not stated)	2	/	/	3.4	/
O=C(NN1C(=O)C2C3C=CC(C3)[C@H]2C1=O)c1cccnc1 (some centres not stated)	5	-21	-2	-0.6	-10%
Cc1csc(C2=C(O)CN(CCc3ccccc3)C2=N)n1	-14	-36	-8	-0.1	-6%
Cc1ccc(C(=O)Oc2ccc3c(c2)ncn3C)cc1	75	2	6	2.4	11%
CCOC(=O)N1CCN(C(=O)COC(=O)CSc2cc(C)c(Br)cc2C)CC1	54	/	/	2.8	/
ClC1(Cl)CC1CSc1nc2ccccc2[nH]1 (configuration not stated)	1	/	11	7.1	2%
